miR-21 reporter – raises the signal of a miR-21 reporter; AID 2288; 340,000 tested, under 10 active; HeLa miR-21 FLuc reporter, luciferase, 48 h; Potency, µM (doses to about 38.3 µM), without a hit: at the highest dose reporter change, positive = more light; active = well fitted rising curve with a large enough effect; inconclusive = small, poorly fitted or top-dose-only effect; inactive = no such curve, though single readings can be large or run the other way;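 further: % of control where 0% means no effect; miR-21 action dims this reporter so a rising signal means less miR-21 action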
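Compounds were titrated across several concentrations (up to approximately 40 uM) and incubated 48 hours with HeLa miR-21-FLuc reporter cells (miR-21 target sequence downstream of FLuc, endogenous miR-21). Readout was firefly luciferase luminescence after lytic detection reagent.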
GLA inh pH 4.5 – alpha-galactosidase A (human) inhibition, pH 4.5. purified enzyme, 4-MU-alpha-Gal fluorescence, pH 4.5. P06280. activity change, negative = inhibition, % at 105 µM. 230,000 tested, under 10 active; inconclusive = small, poorly fitted or top-dose-only inhibition, or a rising curve; inactive = flat fitted curve, though single readings scatter; no compound was filed as active;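 further: 0% = full activity with enzyme and -100% = basal without enzyme; dose as in the result columns while the protocol names 77 µM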
Rango complex inh – inhibitors of Rango-importin beta complex formation; Potency, µM (titrated, usually from 92.2 µM), without a hit: at the top dose inhibition of complex formation; hit rate 0.031% among 340,000; Q14974; Rango CFP/YFP FRET sensor + importin beta, 45 min; active = rising FRET ratio curve, often small or poorly fitted; inconclusive = mostly compound fluorescence or quenching in the first reads; inactive = flat curves in all reads;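 further: potency means the concentration at half of the fitted maximal effect; 0% = DMSO wells and 100% = buffer wells lacking importin beta; nearly all actives have a fitted effect of over 15% in size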
Target sequence (Q14974 whole entry, looked up): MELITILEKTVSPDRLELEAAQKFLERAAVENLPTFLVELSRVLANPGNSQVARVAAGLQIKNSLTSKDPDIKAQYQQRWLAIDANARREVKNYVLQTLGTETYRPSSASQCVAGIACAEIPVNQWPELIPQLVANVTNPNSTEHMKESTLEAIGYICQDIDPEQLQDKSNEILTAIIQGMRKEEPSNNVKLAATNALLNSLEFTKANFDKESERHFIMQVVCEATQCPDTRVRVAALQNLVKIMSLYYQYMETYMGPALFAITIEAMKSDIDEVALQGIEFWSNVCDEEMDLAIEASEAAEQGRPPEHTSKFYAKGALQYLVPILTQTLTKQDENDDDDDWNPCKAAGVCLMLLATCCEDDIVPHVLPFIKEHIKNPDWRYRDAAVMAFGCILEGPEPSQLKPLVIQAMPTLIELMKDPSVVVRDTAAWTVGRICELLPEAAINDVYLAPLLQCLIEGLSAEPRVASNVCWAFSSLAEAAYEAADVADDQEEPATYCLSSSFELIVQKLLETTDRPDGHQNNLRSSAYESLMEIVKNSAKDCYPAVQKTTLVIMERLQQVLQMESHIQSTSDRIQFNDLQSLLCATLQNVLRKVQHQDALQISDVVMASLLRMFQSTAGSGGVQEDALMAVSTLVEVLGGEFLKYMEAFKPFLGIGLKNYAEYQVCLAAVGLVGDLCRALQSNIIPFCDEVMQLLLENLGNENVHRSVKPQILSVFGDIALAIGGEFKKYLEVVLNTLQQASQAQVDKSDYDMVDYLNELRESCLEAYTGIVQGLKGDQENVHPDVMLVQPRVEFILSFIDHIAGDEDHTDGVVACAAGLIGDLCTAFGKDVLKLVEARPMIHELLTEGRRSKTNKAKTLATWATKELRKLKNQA
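FRET biosensor Rango (snurportin 1 IBB between N-terminal EYFP and C-terminal Cerulean), 50 nM in PBS/1 mM DTT/0.02% Tween-20/0.1% BSA, preincubated 5 min RT with compound; 0.125 microM importin beta added, 45 min RT, CFP/YFP FRET ratio read.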
Rango dissoc inh – inhibitors of RanGTP-induced Rango-importin beta complex dissociation | O95149+P62826 | Biochemical FRET Rango-importin beta, RanGTP-induced dissociation | Potency, µM (highest dose often 46.1 µM), without a hit: at the highest dose activity change, negative = inhibition | hit rate 0.071% among 340,000 | AID 540253; active means falling FRET ratio curve, often poorly fitted, with flat reads before Ran was added; inconclusive means other falling curves, or compound fluorescence or quenching; inactive means flat or rising ratio curve;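 further: potency means the concentration at half of the fitted maximal effect; % of control where 0% means no effect; nearly all actives have a fitted effect of over 45% in size; -100% = wells without RanGTP and RCC1; the record marks most hits as doubtful in a second field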
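Quantitative HTS using a FRET biosensor: 0.1 uM Rango, 0.25 uM importin beta, 0.6 uM Ran, 2 mM GTP, 0.2 uM RCC1 final, PBS with DTT, Tween-20 and BSA. Post-read taken 45 min after Ran addition.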
Starred values were filed as active, the others as inactive; ? = inconclusive; / = not tested or not shown; & = joins results of further samples; [ ] = remark or other dose.

The line under a structure holds: miR-21 reporter, GLA inh pH 4.5, Rango complex inh, Rango dissoc inh
- Cc1ccc(OCC(=O)N2CCN(S(=O)(=O)c3ccccc3)CC2)c([N+](=O)[O-])n1
  -13%, 0, -3.8%, 2%
- NC(=O)c1cccc(NC(=O)CCCCC(=O)Nc2cccc(C(N)=O)c2)c1
  3%, /, -2.6%, 9%
- Cc1ccn2c(C(=O)CSc3ccc(Cl)cc3Cl)c(C)nc2c1
  -3%, -9, 0.5%, 12%
- CCCCOC(=O)NCN1C(=O)C2C3C=CC(C3)C2C1=O (centres undefined)
  -4%, -5, 6.7%, 34%
- O=C(Nc1cc(Cl)cc(Cl)c1)N1CCCC1
  3%, -4, -1.3%, -13%
- Cc1cccc(C(=O)Oc2ccc(/C=N/NC(=O)c3ccncc3)cc2)c1
  -2%, 5, 0.3%, -10%
- CCn1c(SCC(=O)Nc2ccc(N3CCOCC3)cc2)nnc1-c1ccco1
  /, /, -0.1%, -6%
- CN=C1SC(CC(=O)Nc2cccc(Cl)c2Cl)C(=O)N1C (centres undefined)
  -3%, -4, 3.3%, 24%
- O=C(NCCN1CCN(C(=O)c2cccc(Br)c2)CC1)C(=O)Nc1ccc(Br)cc1
  14%, /, -1.1%, -9%
- O=C(CNC(=O)c1cccs1)Nc1cccc(S(=O)(=O)N2CCOCC2)c1
  /, /, 5.8%, 5%
- O=C(C1CC1)N(Cc1ccco1)c1nc(-c2ccccc2)cs1
  -9%, -8, 1.9%, 4%
- CC(C)CSC1=NSC2=NC(=O)/C(=C\c3ccccc3)C(=N)N12
  -53%, 1, -8.3%, -14%
- CS(=O)(=O)N(CC(=O)N1CCc2ccccc2C1)c1ccccc1F
  /, /, -1.9%, 0%
- CC(=O)Nc1ccc(S(=O)(=O)N2CCN(C(=O)c3ncoc3-c3ccc(C)cc3)CC2)cc1
  1%, /, -0.5%, 11%
- O=C1[C@@H]2Cc3c([nH]c4ccccc34)CN2C(=O)CN1CCO
  -1%, /, ?, 3%
- CCCn1c(C)cc(C(=O)Cn2nnc3ccccc3c2=O)c1C
  -31%, -4, -2.4%, 15%
- CC(C)(C)c1ccc(OCC(=O)N2CCN(c3ncccn3)CC2)cc1
  -7%, /, 1.1%, 1%
- CCCCC(CC)CNC(=O)CC1Nc2c3ccccc3nc(=S)n2C1=O (centres undefined)
  2%, -16, -0.1%, -1%
- C/C(=C\C1CCCCC1)C(NC(=O)c1ccc(C(F)(F)F)cc1)c1ccc(-c2ccccc2)cc1 (centres undefined)
  /, -3, 2.7%, -6%
- CCOc1ccc(N(CCC#N)S(=O)(=O)c2ccc(OC)cc2)cc1
  19%, -1, 0.0%, 13%
- CN(C)CCCN(C(=O)c1nc2ccccc2s1)c1nc2ccc(F)cc2s1
  /, /, -0.3%, -5%
- Nn1c(SCC(=O)Nc2ccc3c(c2)CCC3)nnc1C1CC1
  /, /, -2.4%, -6%
- O=S(=O)(NCCC1=CCCCC1)c1ccc(Br)cc1
  -3%, /, 0.0%, 1%
- CCCNC(=O)Cn1c(=O)oc2cc(S(=O)(=O)N3CCCC3)ccc21
  4%, /, 0.3%, 1%
- Cc1[nH]nc(-c2ccc(OCc3cnn(-c4ccccc4)c3)cc2O)c1Oc1ccccc1F
  -7%, 0, 3.4%, -4%
- S=C(Nc1ccccc1)N1CCn2cccc2C1c1cccnc1 (centres undefined)
  -2%, 3, 0.6%, 28%
- O=C(CCc1c[nH]c2ccccc12)NCCc1ccc(O)cc1
  -11%, /, 1.6%, -5%
- CSCCC(NC(=O)c1ccco1)C(=O)NC1CCCCCC1 (centres undefined)
  /, /, -2.2%, -15%
- CN(CC(=O)Nc1ccccc1Cl)C(=O)COC(=O)c1nc(Cl)ccc1Cl
  /, /, -7.0%, 31%
- O=C(CN1CCN(c2ncc(C(F)(F)F)cc2Cl)CC1)NC(=O)NCc1ccccc1
  -1%, 4, 0.5%, -1%

Whole records from above. Order of values: miR-21 reporter, GLA inh pH 4.5, Rango complex inh, Rango dissoc inh
`O=C(CN1CCN(c2ncc(C(F)(F)F)cc2Cl)CC1)NC(=O)NCc1ccccc1` is listed with -1%, 4, 0.5%, -1%
`Cc1ccn2c(C(=O)CSc3ccc(Cl)cc3Cl)c(C)nc2c1` is listed with -3%, -9, 0.5%, 12%

Six entries already listed, sorted by the value under Rango dissoc inh, largest number first:
The line under a structure holds: miR-21 reporter, GLA inh pH 4.5, Rango complex inh, Rango dissoc inh
- S=C(Nc1ccccc1)N1CCn2cccc2C1c1cccnc1 (centres undefined)
  -2%, 3, 0.6%, 28%
- CCCn1c(C)cc(C(=O)Cn2nnc3ccccc3c2=O)c1C
  -31%, -4, -2.4%, 15%
- CCOc1ccc(N(CCC#N)S(=O)(=O)c2ccc(OC)cc2)cc1
  19%, -1, 0.0%, 13%
- O=C(CNC(=O)c1cccs1)Nc1cccc(S(=O)(=O)N2CCOCC2)c1
  /, /, 5.8%, 5%
- CCCNC(=O)Cn1c(=O)oc2cc(S(=O)(=O)N3CCCC3)ccc21
  4%, /, 0.3%, 1%
- Nn1c(SCC(=O)Nc2ccc3c(c2)CCC3)nnc1C1CC1
  /, /, -2.4%, -6%

Next results.
The line under a structure holds: miR-21 reporter, GLA inh pH 4.5, Rango complex inh, Rango dissoc inh
- COc1ccccc1N1CC(C(=O)Nc2nnc(SCC(=O)N3CCCC3)s2)CC1=O (centres undefined)
  /, /, 1.1%, -6%
- Cn1cc(Cl)c(C(=O)Nc2nccs2)n1
  -28%, /, 4.7%, 4%
- CCCCN(N=Nc1nonc1OC)c1nonc1OC
  -5%, 0, 6.5%, 2%
- CC(=O)N1C(=O)/C(=C2\SC(=S)N(c3c(C)n(C)n(-c4ccccc4)c3=O)C2=O)c2ccccc21
  -3%, -12, 3.8%, -3%
- COC(=O)c1cc(-c2ccc(OC)cc2)on1
  1%, -4, -1.9%, 0%
- COc1ccc(CCNC(=O)/C=C\c2ccccc2)cc1OC
  -27%, 4, -0.6%, 8%
- CCOc1ccccc1N(C(=O)CNS(=O)(=O)c1ccccc1)C(CC)C(=O)NCc1ccco1 (centres undefined)
  1%, 0, -0.2%, 8%
- O=C(CN1C(=O)NC2(CCCC2)C1=O)OCCOc1ccc(Br)cc1
  /, /, 3.1%, -6%
- Cc1c(OCC(=O)N2C[C@H]3C[C@@H](C2)c2cccc(=O)n2C3)ccc2c3c(c(=O)oc12)CCC3
  -6%, /, -2.4%, 2%
- Cc1ccc(NC(=O)NNC(=O)COc2ccc([N+](=O)[O-])cc2)cc1C
  -3%, /, -2.7%, 0%
- CC(=O)c1cccc(N(C(=O)c2cnccn2)C(C(=O)NCc2ccccc2)c2ccco2)c1 (centres undefined)
  -1%, 0, 0.8%, 2%
- COc1ccc(C(=O)Nc2nc3cc(OC)c(OC)cc3c(=O)[nH]2)cc1
  -6%, 4, 2.0%, 17%
- O=C(OCc1ccc(Cl)cc1)c1cnccn1
  2%, -1, -4.3%, 3%
- CCc1c(O)nc(SCC(=O)Nc2ccc3c(c2)CCC3)[nH]c1=O
  8%, 5, -0.6%, 2%
- CCOC(=O)C1CCCN(C(=O)c2ccc3[nH]c4c(c3c2)CC(C)CC4)C1 (centres undefined)
  /, /, ?, -29%
- O=C(c1ccc(-n2cncn2)c([N+](=O)[O-])c1)N1CCN(S(=O)(=O)c2ccc(F)c(F)c2)CC1
  /, /, -1.4%, -5%
- O=C(c1cccnc1)N1CCCc2ccccc21
  -7%, 2, -0.2%, 2%
- CCn1nc(C(=O)Nc2cc(Cl)ccc2-n2cncn2)c2ccccc2c1=O
  /, /, 1.8%, 7%
- O=C(Nc1ccc2c(c1)OCO2)C1CC1
  /, /, -1.1%, -22%
- Cc1cc(NCC(c2ccccc2)c2ccccc2)n2ncnc2n1
  6%, -7, -0.2%, -3%
- CC/C(C)=N/Nc1ccc(S(=O)(=O)N2CCCC2)cc1[N+](=O)[O-]
  -7%, 2, -3.2%, 0%
- O=C(Nc1nnc(C2CCCC2)s1)C1CCC1
  -42%, 3, 0.4%, 7%
- Cc1cccc(C)c1NC(=O)c1cccc(C(=O)Nc2c(C)cccc2C)n1
  /, /, -2.1%, -6%
- COc1ccc(NC2=CC(c3ccccc3)N(c3ccc(OC)cc3)C2=O)cc1 (centres undefined)
  2%, 1&1, -6.1%, -8%
- COc1cnn(-c2cccc(C(F)(F)F)c2)c(=O)c1Cl
  /, /, -4.3%, 3%
- O=C1ON=C(c2ccccc2)/C1=C/c1ccccc1
  -3%, /, -1.4%, 1%
- COCCNC(=O)CN(c1ccc(C)cc1)S(=O)(=O)c1ccccc1
  -3%, 1, 1.4%, 1%
- COC(=O)c1ccccc1NC(=O)NCc1cccnc1
  2%, -20, 0.5%, 0%
- C=CC1=C2C=C(C3CC3)N(C3CC3)C=C2C(=O)C(C)(OC(=O)c2ccco2)C1=O (centres undefined)
  /, 6, ?, ?
- c1ccc(Oc2cccc(CN3CCOCC3)c2)cc1
  -10%, -3, ?, -6%
- Cc1ccc(NC(=O)CCC(=O)N/N=C/c2cc([N+](=O)[O-])ccc2O)cc1
  -8%, 1, 3.0%, -18%
- Oc1ccccc1Cn1c(-c2ccccc2O)nc2ccccc21
  17%, 0, 2.1%, -6%
- CCC(=O)Nc1ccc(C(=O)COC(=O)CCN2C(=O)C3CC=CCC3C2=O)cc1 (centres undefined)
  /, /, -8.1%, -11%
- Cc1c[n+]([O-])ccc1Oc1ccc([N+](=O)[O-])cc1
  /, /, -1.5%, 14%
- O=C1C2C(C(=O)N1CCN1CCN(Cc3ccc([N+](=O)[O-])cc3)CC1)[C@H]1C=C[C@@H]2C1 (some centres undefined)
  -2%, 4, 3.8%, 21%
- N=C1SCC(=O)N1c1nc(-c2ccccc2)cs1
  -41%, 3, 3.5%, 17%
- CC1CCCN(CCCNS(=O)(=O)c2ccc3c(c2)CCN3C(=O)C2CC2)C1 (centres undefined)
  -2%, /, 3.2%, 29%
- CNC(=O)CCSc1ccc(C)cc1
  -11%, 3, -0.4%, 4%
- C#Cc1ccc([C@H]2C=C(C(=O)O)O[C@@H](OCCCCO)C2)cc1
  /, /, -0.1%, 22%
- CCN1CCCC1CNC(=O)c1ccc(Sc2ccccc2Cl)c([N+](=O)[O-])c1 (centres undefined)
  -13%, -5, -1.0%, 11%
- Nc1nonc1C(=O)NCCN=Cc1cc(Cc2ccccc2)cc(Br)c1O
  1%, -4, ?, ?
- COc1ccccc1NC(=O)C1CCCN(S(=O)(=O)c2ccccc2)C1 (centres undefined)
  6%, /, 1.6%, -6%
- CC(=O)Nc1ccc(S(=O)(=O)Nc2cccc(-c3cn4c(n3)SCC4)c2)cc1
  1%, 9, -2.8%, 7%
- CCOc1nc(NCCN2CCOCC2)nc(Nc2ccc([N+](=O)[O-])cc2)n1
  3%, -9[21.1 µM], -0.8%, 0%
- Cc1ccc(NC(=S)N(CCN(C)C)Cc2cc3cccc(C)c3[nH]c2=O)cc1
  -4%, 1, -2.0%, -2%
- Cc1ccc(-c2c[nH]c(=S)n2-c2ccccc2)cc1
  1%, -9, -0.6%, 16%
- CC12CN(C(=O)c3ccc([N+](=O)[O-])cc3)CC(C)(CN(C(=O)c3ccc([N+](=O)[O-])cc3)C1)C2=O
  3%, 0, 2.2%, -25%
- CCOc1ccc(S(=O)(=O)N(CC(=O)NCC2CCCO2)c2ccc(F)cc2)cc1 (centres undefined)
  5%, /, 10%, 3%
- Cc1ccc(NC(=O)CSc2nnc(NC(=O)C3CC3)s2)cc1C
  0%, /, 5.0%, -11%
- O=c1c2[nH]c3ccccc3c2ncn1Cc1ccncc1
  0%, 2, -0.1%, -2%
- c1coc(CSSCc2ccco2)c1
  /, /, ?, ?
- COc1ccc(C(=O)NCCc2cn3ccccc3n2)cc1
  -21%, -2, 0.3%, 33%
- O=C(CNC(=O)c1ccc(Br)cc1)N/N=C/c1ccc[nH]1
  -1%, 4, 1.0%, -9%
- O=C1c2ccccc2C(=O)N1CCc1ccccc1
  /, /, -0.9%, -19%
- CC(Oc1ccccc1)C(=O)N=Nc1c(O)[nH]c2ccc([N+](=O)[O-])cc12 (centres undefined)
  1%, -9, -2.8%, 8%

Source: PubChem (National Center for Advancing Translational Sciences (NCATS))

Some of the compounds tested, so the mix of outcomes need not match the whole.
